LT uptake inh: anthrax lethal toxin internalization inhibition; Cells, anthrax lethal toxin internalization, FRET ratio (460/530); Potency, µM (titrated, usually from 40 µM), for inactives: top-dose activity change, negative = inhibition, most hits filed as inhibitors; 70,000 compounds, 0.67% hits; active = well fitted falling ratio curve with the 530 nm signal flat; inconclusive = other ratio curves, or a change in one channel alone; inactive = flat curves in the ratio and both channels; the % refers to the ratio; further: on the % scale 0 is the no-effect control and ±100 the full control effect; nearly all actives have a fitted effect of over 50% in size; tested in ME-180 cells; beta-lactamase reporter
Prx2 Sm inh: inhibitors of Schistosoma mansoni peroxiredoxin 2 | AID 448 | S. mansoni Prx2 activity coupled to TGR/GSH (TGR is thioredoxin glutathione reductase), NADPH fluorescence loss, qHTS; some inactives read as strong as hits | 65,000 compounds, 0.07% hits | Potency, µM; active means full or partial inhibition curve with a strong effect at the top dose; inconclusive means weaker partial or single-point curve; inactive means no accepted curve; further: series up to 57 µM; many of its hits are not listed in these tables
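Coupled assay in which S. mansoni TGR passes NADPH reducing equivalents via glutathione to Prx2, which reduces H2O2. Compounds were preincubated 15 min at room temperature with 25 nM TGR/50 nM Prx2 mix. Kinetic NADPH fluorescence loss (ex 365/em 450 nm) was monitored.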
An asterisk follows results filed as active; u = inconclusive; x = no result given; & = joins results of further samples; [ ] = remark or other dose. Potency means the concentration at half of the fitted maximal effect. These rows are one share of the data; rates above refer to the full screens.

compound,LT uptake inh,Prx2 Sm inh
CC(C)OC(=O)c1ccc(OC(=O)c2cccnc2)cc1,-4%,>57
CCc1c(C)nc2cc(-c3cc(OC)cc(OC)c3)nn2c1N1CCCC1,13µM*,>57
Fc1ccc(C(OCCN2CCN(CCCc3ccccc3)CC2)c2ccc(F)cc2)cc1,u,>57&>57&>57
CS(=O)(=O)N1CCC2(CC1)CN(c1ccccn1)C2,6%,>57
Cc1cnc(NC(=O)CSc2nnc(COc3c(C)cccc3C)o2)s1,13%,>57
O=C(Nc1ccc2c(c1)OCCO2)c1cccnc1,-4%,>57
O=C(c1csnn1)N1CCC2(CCCN(c3ncccn3)C2)CC1,7%,>57
COc1ccccc1N1CCN(C(=O)c2cc3c(-c4ccc(Cl)cc4)nn(C)c3s2)CC1,u,>57
Cn1c(=O)oc2cc(S(=O)(=O)N3CCCC(C(=O)NCc4ccc5c(c4)OCO5)C3)ccc21 (configuration not stated),24%,>57
CC(c1ccccc1)n1cnc2ccccc21 (configuration not stated),-13%,>57
COCCn1nnnc1SCC(=O)c1ccccc1,3%,>57
COc1ccccc1CNc1nc(-c2ccc(C(=O)N(C)C)cc2)nc2ccccc12,u,>57
Nc1nc(C(=O)N2CCOCC2)nn1S(=O)(=O)c1ccccc1,u,>57
CC(C)Oc1cccc(C(=O)Nc2ccc(CN3CCOCC3)cc2)c1,-12%,u
COC(=O)C(O)(CC(=O)Nc1ccc(Cl)cc1F)C(F)(F)F (configuration not stated),3%,>57
CSc1ccccc1NC(=O)C1CC(c2ccccc2O)=NO1 (configuration not stated),u,>57
O=C(Nc1nc2ccccc2[nH]1)c1ccc(F)cc1,-4%,>57
COc1cccc(/C(O)=C2/C(=O)C(=O)N(Cc3ccco3)C2c2ccncc2)c1 (configuration not stated),-11%,>57
CCCS(=O)(=O)N1CCn2c(nc3ccccc32)C1,7%,>57
CCn1c(SCC(=O)Nc2cc(NC(C)=O)ccc2OC)nnc1-c1cccnc1,5%,>57
COC(=O)C1=C(C)NC2=C(C(=O)CCC2)C1c1ccccn1 (configuration not stated),15%,x
CCN(CC)S(=O)(=O)c1ccc(N=Cc2c(O)n(-c3ccccc3)c(=O)[nH]c2=O)cc1,-8%,x
NC(CSS(=O)(=O)O)=N[C@@H]1C[C@H]2CC[C@@H]1C2,u,>57
CN(C)Cc1ccccc1-c1nc(N(C)Cc2ccco2)c2ccccc2n1,u,>57
Cc1c(C(=O)OC2CCCC2)[nH]c2c1C(=O)CC(c1ccco1)C2 (configuration not stated),u,>57
Cc1ccc(C(=O)Cn2c(C)cc(C)c(C#N)c2=O)cc1,u,>57
C=CCNC(=O)COc1ccc(S(=O)(=O)NC2CCCCC2)cc1,u,>57
[O-]/[N+](=C\c1ccncc1)c1ccc(Br)cc1,2%,x
COc1cc(Nc2cc(C)nc3ncnn23)cc(OC)c1OC,2%,>57
CN=c1nc(-c2ccccc2)n(-c2ccccc2)s1,-6%,>57
O=C(CN1CCCCC1)Nc1ccc(S(=O)(=O)N2CCCCCC2)cc1,-4%,>57
CCOC(=O)CNS(=O)(=O)c1c(C)noc1C,-2%,>57
Cc1c(NC(=O)c2ccc(Cl)c(S(=O)(=O)N3CCOCC3)c2)c(=O)n(-c2ccccc2)n1C,x,>57
CCCCC(=O)Nc1ccccc1C#N,-21%,>57
O=C(O)CC1(CC(=O)O)Nc2ccccc2SC1=O,u,>57
CCOC(=O)Cn1c(=O)oc2cc(S(=O)(=O)N(CCN(C)C)Cc3ccccc3)ccc21,u,>57
COc1ccc(CNc2ncnc3ccc(-c4cccc(C#N)c4)cc23)c(OC)c1,-5%,>57
Fc1ccccc1Cn1nnc2c(-n3ccnc3)ncnc21,u,>57
Cc1cc(Cl)ccc1OCC(=O)NCCC(=O)O,-10%,x
COC(=O)c1ccc(NC(=O)CN(c2ccc(OC)cc2)S(C)(=O)=O)cc1,u,>57
C[C@H]1C[C@@H]2[C@H]3CCC4=CC(=O)C=C[C@@]4(C)[C@]3(Cl)[C@@H](Cl)C[C@]2(C)[C@]1(O)C(=O)COP(=O)(O)O,-9%[8 µM],>57
O=C(CN1CCOCC1)Nc1ccc(-c2nc3ccccc3[nH]2)cc1,1%,>57
O=C(NCc1ccccn1)C(C(=O)c1ccc(F)cc1)n1ccccc1=O (configuration not stated),-2%,>57
CCOC(=O)Cc1csc(NC(=O)CCc2ccc(S(=O)(=O)N3CCOCC3)cc2)n1,-1%,>57
Cn1c(=O)c2[nH]c(CCS)nc2n(C)c1=O,-3%[8 µM],>57
CCOC(=O)c1[nH]c(C)c(C(=O)Nc2ccc3c(c2)OCCO3)c1C,9%,>57
CCOC(=O)N1CCC(N(CCOC)C(=O)Nc2ccc(CC)cc2)CC1,-2%,>57
Cc1ccc(-n2c(C)nc3c(cnn3-c3ccc(F)cc3)c2=O)cc1,15%,>57
COC(=O)c1ccccc1NC(=O)c1noc2c1CCCC2,-17%,>57
COCCCn1cnc2c(c1=O)c1nc3ccccc3nc1n2-c1ccccc1,-1%,>57
Cc1ccnc(SCC(=O)Nc2sc3c(c2C#N)CCCC3)n1,-8%,>57
CCCCOc1ccc(/C(O)=C2/C(=O)C(=O)N(CCCOC)C2c2ccncc2)cc1C (configuration not stated),0%,x
CCOC(=O)CSc1nc(C)c2cc(OC)ccc2n1,2%,x
CCCCn1c(SCC(N)=O)nnc1-c1ccco1,2%,>57
COc1ccc(-c2nc(C#N)c(N3CCN(c4cccc(Cl)c4)CC3)o2)cc1OC,10%,>57
CC1(C)N=C(c2ccc(Cl)cc2Cl)C(=O)N1,-5%,>57
CC(=O)NC(c1ccco1)c1ccc2cccnc2c1O (configuration not stated),7%,x
Cc1nc2c(oc3ccccc32)c(=O)o1,-11%,>57
O=C(Nc1cccnc1)c1noc2c1CCCCC2,6%,x
O=C(Oc1ccccc1)N1CCC[C@@]2(CCN(Cc3ccccc3)C2)C1,1%,>57

Part of the list above in another layout.
Every second line gives: LT uptake inh, Prx2 Sm inh
Fc1ccccc1Cn1nnc2c(-n3ccnc3)ncnc21
→ u, >57
Cc1cc(Cl)ccc1OCC(=O)NCCC(=O)O
→ -10%, x

Continuation:
compound,LT uptake inh,Prx2 Sm inh
COc1ccccc1NC(=O)CSc1nnc(Cn2nnc(-c3ccccc3)n2)n1-c1ccccc1,-6%,>57
CCOc1cc(N2CCOCC2)c(OCC)cc1NC(=O)COC(=O)c1cc(C)oc1C,3%,>57
CC(C(=O)NC1=NCCS1)N1C(=O)c2ccccc2C1=O (configuration not stated),8%,>57
CCCCCCCCCCCCCCCC(=O)O[C@H](CC(=O)O)C[N+](C)(C)C,u,>57&>57
CCCN(CCC)C(C(=O)Nc1cccc(OC)c1)c1ccccc1 (configuration not stated),u,>57
CCN(CC)c1ccc2cc(C(=O)O)c(=O)oc2c1,x,>57
COc1cc(C(=O)Nc2nc(N)n(-c3ccccc3)n2)cc(OC)c1OC,u,>57
COc1cc2c(cc1NC(C)=O)CCCC2,-7%,>57
CCCC1C(c2ccccc2)C(C#N)(C#N)C2(C#N)CC1(N)NC2=O (configuration not stated),x,>57
Clc1ccc(NCc2nncn2-c2ccccc2)cc1,-10%,>57
CCOCCCNC(=O)c1ccc(OC(C)=O)cc1,6%,>57
CCOc1ccc(-c2nnn(CC(=O)c3ccc4c(c3)OCCO4)n2)cc1,-18%,>57
CCOC(=O)[C@]1(C(NC(=O)OC)c2cccc(F)c2)CCCC1=O (some centres not stated),-18%[8 µM],x
O=C(Nc1nc2ccccc2n1CCOc1ccc(Cl)cc1)c1ccco1,u,>57
CC1CCN(c2nc3ccccc3nc2C(C#N)C(=O)OC2CCCCC2)CC1 (configuration not stated),u,>57
O=C(CSc1nnc2scc(-c3ccccc3)n12)NCc1ccc2c(c1)OCO2,9%,>57
Nc1nnc(SCC(=O)c2ccccc2)s1,-3%,x
CC1=CC2=C(OC1N(C)C)c1cccc3cccc(c13)C2=O (configuration not stated),u,x
CCC(=O)N1CCc2cc(Br)cc(S(=O)(=O)N3CCN(C(=O)c4ccco4)CC3)c21,-4%,>57
O=C(c1ccc(COc2ccccc2Br)o1)N1CCCCCC1,u,>57
O=C(OCC(=O)c1c[nH]c2ccccc12)C1=COCCO1,6%,>57
COc1ccc(C2C(C(=O)N3CCCC3)CC(=O)N2c2ccc(OC)cc2)cc1 (configuration not stated),-2%,>57
O=c1c(-c2ccc(Cl)cc2)nc2cnc(N3CCOCC3)nc2n1-c1ccccc1,u,>57
O=c1ccn(Cc2ccccc2)c(=O)n1Cc1ccccc1,0%,>57
O=C=Nc1ccc(Cc2ccc(N=C=O)cc2)cc1,-9%,x
CCN1C(=O)C(C(=O)Nc2ccc(OC)cc2)C2CC1(C)Oc1ccccc12 (configuration not stated),9%,>57
Cc1ccc(CNC(=O)c2cccc(OCc3c(C)noc3C)c2)cc1,-5%,>57
CCOC(=O)CN1CC23C=CC(O2)C(C(=O)Nc2cc(OC)ccc2OC)C3C1=O (configuration not stated),5%,>57
CCNS(=O)(=O)c1ccc(OC)c(C)c1,8%,>57
Cc1nn2c(-c3cccc(NC(=O)c4ccco4)c3)nnc2c2ccccc12,x,>57
CCOC(=O)C1=C(N)OC2=C(C(=O)CCC2)C1c1ccc(C)s1 (configuration not stated),20%,x
O=C1c2ccccc2C(=O)N1CSc1ncccn1,-9%,x
COc1ccccc1NC(=O)N1CCCC1C(=O)NC12CC3CC(CC(C3)C1)C2 (configuration not stated),-21%,>57
CC1CCN(c2c(NCc3ccc(C(=O)N4c5ccccc5CC4C)cc3)c(=O)c2=O)CC1 (configuration not stated),u,>57
CC/C=C1/OC(=O)c2ccccc21,4%,x
CSc1ncccc1C(=O)OCC(=O)NC1CCS(=O)(=O)C1 (configuration not stated),-3%,>57
Cc1ccc(/C=C/C2=Cc3c(sc(NC(=O)CSc4n[nH]c(N)n4)c3C#N)C(C)(C)C2)o1,u,x
O=C(O)CNS(=O)(=O)c1ccc(Br)s1,10%,>57
CCCCCn1c(=O)c(C(=O)Nc2ccncc2)c(O)c2ccccc21,u,>57
COc1ccccc1C1(CC(=O)O)CCOC(C)(C)C1 (configuration not stated),-20%,x
COc1cc(OC)cc(C(=O)N2CCN(c3ccccc3F)CC2)c1,7%,>57
C[C@@H]1O[C@H](C[N+](C)(C)C)CS1,0%,>57
Cc1ccc(Cn2nnc3c(=O)n(CC(=O)NCc4ccco4)cnc32)cc1,-28%,>57
CC(=O)NCc1nc2ccccc2n1Cc1ccccc1F,2%,>57
O=C1c2oc3ccccc3c(=O)c2C(c2ccccn2)N1Cc1ccccc1 (configuration not stated),2%,>57
COc1cccc(-c2nc(CS(=O)(=O)CC(=O)NCc3ccccc3OC)c(C)o2)c1,-21%,>57
CCCCCCc1ccc(-c2ncc(N)cn2)cc1,-8%,x
CCOC(=O)c1ccc(Cn2c(-c3ccccc3)nnc2-c2ccccc2)o1,x,>57
C/C=C/c1ccc2c(c1)OCO2,1%,x
CCC(C(=O)NC1CCCC1)N(Cc1ccc2c(c1)OCO2)C(=O)c1snc(C(N)=O)c1N (configuration not stated),3%,>57
COc1nc(/C(N)=N/O)nc(N2CCCCC2)n1,-1%,>57
Cc1ccc(-c2nc3nc4ccccc4nc3n2Cc2ccco2)cc1,x,>57
COc1ccc(S(=O)(=O)NCCCN2CCOCC2)c2ccccc12,u,>57
COc1ccccc1-c1cncnc1Nc1ccc(F)cc1,-4%,>57
Cn1nnc(C(O)CN2CCOCC2)n1 (configuration not stated),-12%,>57
Cc1ccc(C)c(C(=O)CCC(=O)Nc2cccnc2)c1,14%,>57
COc1cc(OC)c(C(=O)NC2CCCCCC2)cc1OC,-9%,>57
OCCNc1nc(C2CC2)nc2c1nnn2Cc1ccccc1Cl,-12%,>57
Cc1cc(C(F)F)n2nc(C(=O)Nc3ccc(F)cc3F)nc2n1,-15%,>57
N#Cc1cccc(-n2nnnc2-c2ccccn2)c1,-3%,>57
CCOC(=O)CNC(=O)Cn1cnc2c(nnn2-c2ccc(C)cc2)c1=O,-4%,>57

Looked up above:
OCCNc1nc(C2CC2)nc2c1nnn2Cc1ccccc1Cl in Prx2 Sm inh shows >57
CSc1ncccc1C(=O)OCC(=O)NC1CCS(=O)(=O)C1 (configuration not stated) in LT uptake inh shows -3%
CC1CCN(c2c(NCc3ccc(C(=O)N4c5ccccc5CC4C)cc3)c(=O)c2=O)CC1 (configuration not stated) in Prx2 Sm inh shows >57
CCC(C(=O)NC1CCCC1)N(Cc1ccc2c(c1)OCO2)C(=O)c1snc(C(N)=O)c1N (configuration not stated) in LT uptake inh shows 3%
Cc1ccc(-c2nc3nc4ccccc4nc3n2Cc2ccco2)cc1 in Prx2 Sm inh shows >57

From PubChem BioAssay
